# Methyltransferases: Primary Screen for Target Class Profiling of Small Molecule Inhibitors of Methyltransferases; purified enzyme, MTase-Glo SAH luminescence; hits give low values; calls only at 40 µM; 3.9% of 25,000 active; active = -50% or lower on at least one of six enzymes; inconclusive = the cases between; inactive = as a rule above -30% on all six;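 also: enzymes were COMT GAMT GNMT HNMT NNMT and PNMT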
#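 Each enzyme was reacted with SAM and its substrate, with compounds tested once at 40 uM; SAH formed was read by MTase-Glo luminescence.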
# Calls only; i = inactive; ? = inconclusive; + = active, no number. % is scaled to controls: 0 for no effect and ±100 for the full control effect.
entry	Compound	Methyltransferases
1	CCCCN1C(=O)c2ccc(-c3ccco3)n2CC1(C)C(=O)NC1CCCC1 (stereo unspecified)	i
2	Nc1c(NC/C=C\COc2cc(CN3CCCCC3)ccn2)c(=O)c1=O	+
3	CCNS(=O)(=O)c1ccc(Cl)c(-c2nnc(-c3ccccc3)o2)c1	i
4	CCN1CC(c2nc(-c3ccc4nc[nH]c4c3)no2)CCC1=O (stereo unspecified)	i
5	Cc1ccc(Cn2c(=O)c3ccccc3n3c(=O)n(Cc4ccccc4Cl)nc23)cc1	i
6	COc1ccccc1OCCNC(=O)C(C)C1CCOCC1 (stereo unspecified)	i
7	O=C(Cn1c(=O)oc2cc(S(=O)(=O)N3CCCC3)ccc21)Nc1ccc(C(F)(F)F)cc1	i
8	O=C(O)c1ccc(CN2CCC[C@H]2c2nc(-c3ccc(F)cn3)no2)cc1	i
9	COc1ccc(C(=O)N2CCCN(c3nnc4ccc(Cl)cn34)CC2)cn1	i
10	COc1cccc(N2CCN(C(=O)CCC[C@@H]3[C@H]4CCCN5CCC[C@@H](CN3C)[C@@H]45)CC2)c1	i
11	Cc1ccccc1CSc1nnc2n(CC(C)C)c(=O)c3ccccc3n12	i
12	Cc1cncc(C(=O)NC2CCN(c3ccc(=O)n(C)n3)CC2)c1	i
13	CC1(C(=O)NCc2ccccc2)Cn2nc(-c3ccccc3)cc2C(=O)N1c1ccc(Cl)cc1 (stereo unspecified)	i
14	O=C(CCc1nnc2n(Cc3ccc(Cl)cc3)c(=O)c3ccccc3n12)Nc1ccc(F)c(F)c1	i
15	Cc1ccc(N2C(=O)CSc3c(c4ccccc4n3C)C2C(=O)NCc2ccc(F)cc2)cc1C (stereo unspecified)	i
16	O=C(NC1CCN(c2cc(-c3ccc(Cl)cc3)[nH]n2)C1)c1c[nH]c2ccccc12 (stereo unspecified)	i
17	CCS(=O)(=O)N1CCC2(CC1)CC(N1CCN(C(C)C)CC1)CCO2 (stereo unspecified)	i
18	O=C(C1CCCN(C2CCN(c3ncccn3)CC2)C1)N1CCOCC1 (stereo unspecified)	i
19	C=Cc1ccc(Cn2nc3n(CCC)c(=O)c4ccc(C(=O)NCC(C)C)cc4n3c2=O)cc1	i
20	CC1CCN(S(=O)(=O)c2ccc3c(ccn3CCC(=O)NC3CCCc4ccccc43)c2)CC1 (stereo unspecified)	i
21	CC(C)CCOc1ccc2c(-c3ccccc3)cc(=O)oc2c1	i
22	CCOCCOC1CCN(S(=O)(=O)c2ccc(OC)cc2)CC1	i
23	CC1=CCC2C(C)(C)CCC[C@]2(C)[C@@]12CC[C@](C)(CC(=O)O)O2 (stereo partly specified)	i
24	CN(C)C[C@@H]1CN(C)C[C@H]1NC(=O)c1cnccn1	i
25	Cc1cc(Nc2cccc(C(F)(F)F)c2)nc2ccc(NC(=O)c3ccc(=O)[nH]c3)cc12	?
26	CCN(CC)c1nc2c(-c3ccc(C)cc3)nnn2c2ccccc12	i
27	COc1cc2c(cc1OC)/C(=C/c1ccc(O)cc1)C(=O)N2	?
28	Cc1cnc(CC2CCCN(S(=O)(=O)c3ccccc3)C2)n1CC1CC1 (stereo unspecified)	i
29	O=C(Cn1nc2n(Cc3ccccc3)c(=O)c3ccccc3n2c1=O)Nc1ccc2c(c1)OCO2	i
30	CC(C)CCC[C@@H](C)[C@H]1CC[C@H]2[C@@H]3CC(=O)[C@H]4C[C@@H](O)CC[C@]4(C)[C@H]3CC[C@]12C	i
31	CCOC(=O)c1cc2n(n1)CC(C)(C(=O)NC1CCCCCC1)N(Cc1ccc(Cl)cc1)C2=O (stereo unspecified)	i
32	COc1cccc(-c2ccccc2NC(=O)C2CCN(Cc3ccccc3F)CC2)c1	i
33	CCNc1ccnc(N2C[C@H]3CN(C(=O)N(C)C)C[C@@]3(C(=O)O)C2)n1	i
34	CC(=O)Nc1c2n(c3ccccc13)CC(C)(C(=O)NC1CCCC1)N(CCC(C)C)C2=O (stereo unspecified)	i
35	COc1ccc(C(C)NC(=O)c2ccc(Cn3ccn4nc5c(c4c3=O)CCCC5)cc2)cc1OC (stereo unspecified)	?
36	Cc1nc(C)c(C(=O)N2CCCC2c2nc(CCOCC3CCCC3)no2)s1 (stereo unspecified)	i
37	N#Cc1ccccc1CN1CCN(Cc2ccccc2)CC(O)C1 (stereo unspecified)	i
38	CN(C)Cc1nnc(C2CC(NC(=O)c3nc4ccccc4[nH]3)C2)n1C (stereo unspecified)	i
39	Cc1ccc(C)c(N2CCN(S(=O)(=O)c3ccc4c(c3)n(C)c(=O)n4C)CC2)c1	i
40	CCOC(=O)c1cc2n(n1)CC(C)(C(=O)NCCOC)N(c1ccc(OC)cc1)C2=O (stereo unspecified)	i
41	COc1ccccc1N1CCN(CC[C@H]2CN(C(=O)NC3CCCCC3)CC[C@H]2CC(=O)O)CC1	i
42	CCC1c2ccc(C)n2CCN1C(=O)Nc1ccccc1C(F)(F)F (stereo unspecified)	i
43	O=S(=O)(NCCn1c(CCc2ccccc2)nc2ccccc21)c1ccc(Br)cc1	i
44	CC(C)CNC(=O)c1ccc2c(=O)n(C)c3nn(CC(=O)NC4CCCC4)c(=O)n3c2c1	i
45	C[C@@H](c1ccccc1)N1C(=O)[C@@H]2CN(C(=O)CC3(CC(=O)O)CCCC3)CCN2C1=O	i
46	CN1C(=O)c2cc3ccccc3n2CC1(C)C(=O)NCC(=O)NCc1ccc(Cl)cc1 (stereo unspecified)	i
47	COC(=O)C1=CO[C@@H](O[C@@H]2O[C@H](CO)[C@@H](O)[C@H](O)[C@H]2O)[C@@H]2[C@@H](C(=O)OC)[C@@H](O)C(O)[C@H]12 (stereo partly specified)	i
48	COc1cccc(N2C(=O)NC(=NC3CCCC3)C23CCN(Cc2ccccc2)C3)c1 (stereo unspecified)	i
49	Cc1ccc(Cn2c(=O)c3ccccc3n3c(CCC(=O)N4CCc5ccccc5C4)nnc23)cc1	i
50	CN(Cc1ccc(Oc2ncccn2)cc1)CC1CCN(CCc2ccc(F)cc2)CC1	i
51	C=CCNC(=O)N[C@H]1CO[C@H]2[C@@H]1OC[C@@H]2Nc1nccc(C(C)(C)C)n1	i
52	Cc1ccc(N2C(=O)c3cc4sccc4n3CC2(C)C(=O)NC2CCCC2)cc1C (stereo unspecified)	i
53	COCCn1cnnc1CCNC(=O)c1oc2cc(OC)ccc2c1C	i
54	CCOC(=O)c1cc2n(n1)CC(C)(C(=O)NCCCOC)N(c1ccc3c(c1)OCO3)C2=O (stereo unspecified)	i
55	CN(CCCOc1ccc(Cc2ccccc2)cc1)CCC(=O)O	i
56	O=[S+]([O-])(NCC1CN(Cc2ccc3[nH]ccc3c2)CC12CN(c1ccccc1)C2)c1ccccc1 (stereo unspecified)	i
57	CSc1ccc(CNC(=O)Cn2ccc3cc(S(=O)(=O)N4CCC(C)CC4)ccc32)cc1	i
58	C[C@@H]1CC[C@]2(C(=O)O[C@@H]3O[C@H](CO[C@@H]4O[C@H](CO)[C@@H](O)[C@H](O)[C@H]4O)[C@@H](O)[C@H](O)[C@H]3O)CC[C@]3(C)C(=CCC4[C@@]5(C)CC[C@H](O)[C@](C)(C(=O)O)C5CC[C@]43C)[C@@H]2[C@]1(C)O (stereo partly specified)	i
59	Cc1ccc(CN2C(=O)c3cc4occc4n3CC2(C)C(=O)NC2CCCCCC2)cc1 (stereo unspecified)	i
60	CCOC(=O)c1c(NC(=O)N2CCn3c(C)ccc3C2CC)sc2c1CCCC2 (stereo unspecified)	i

# Ordered by number of heavy atoms (low to high): 3 of the compounds above.
entry	Compound	Methyltransferases
51	C=CCNC(=O)N[C@H]1CO[C@H]2[C@@H]1OC[C@@H]2Nc1nccc(C(C)(C)C)n1	i
36	Cc1nc(C)c(C(=O)N2CCCC2c2nc(CCOCC3CCCC3)no2)s1 (stereo unspecified)	i
46	CN1C(=O)c2cc3ccccc3n2CC1(C)C(=O)NCC(=O)NCc1ccc(Cl)cc1 (stereo unspecified)	i

# (next part)
entry	Compound	Methyltransferases
61	O=C(O)c1ccccc1Nc1cccc(OCc2ccc3ccccc3n2)c1	i
62	COCCn1nc2n(c1=O)CCN(Cc1ccc(Br)o1)CC2	i
63	COc1cccc(CN2C(=O)c3cc4ccc(OC)cc4n3CC2(C)C(=O)NC2CCCCC2)c1 (stereo unspecified)	i
64	COc1ccc2cc(OCC3(C(=O)O)CN(C(=O)c4ccc(F)cc4)C3)ccc2c1	?
65	CCCCNC(=O)C1CCc2sc(C(=O)N3CCCCC3)cc2C1 (stereo unspecified)	i
66	COc1ccc(C(=O)N2CC[C@@H](CC(=O)O)[C@@H](CCN3CCC[C@H]3C(N)=O)C2)cc1	i
67	O=S(=O)(c1ccccc1)c1nnn2c1nc(N1CCCCC1)c1ccccc12	i
68	Cc1noc(C)c1S(=O)(=O)N1CCC(Cc2nc(-c3cccnc3)n[nH]2)C1 (stereo unspecified)	i
69	Cc1ccc(C)c(N2CCN(CCCNC(=O)CCc3nnc4n(C)c(=O)c5ccccc5n34)CC2)c1	i
70	Cn1cccc1C(=O)N[C@H]1C[C@@H]2C(=O)N[C@H]3CCN(C(=O)Cc4cccs4)[C@@H]3C(=O)N2C1	i
71	Cn1cc(CN2CC3(COCC(=O)N(Cc4cccc(OC(F)(F)F)c4)C3)C2)cn1	i
72	CC(NC(=O)CCc1nc2ccccc2c(=O)[nH]1)c1ccccc1 (stereo unspecified)	?
73	NC(=O)CN1CCC(C(=O)N2CCCC(CO)(CC3CC3)C2)CC1 (stereo unspecified)	i
74	O=C1CC(c2cn[nH]c2C(=O)O)c2c(n[nH]c2-c2cccs2)N1 (stereo unspecified)	i
75	COCCN1CCCC1c1nc(C2CN(C(=O)c3ncccc3C)C2)no1 (stereo unspecified)	i
76	O=C(Cc1c[nH]c2ccccc12)N1CCc2c(nc(-c3ccc(F)cc3)[nH]c2=O)C1	i
77	C[S+](=O)([O-])N1Cc2ccccc2CC2(CCN(CC3CCCCC3)CC2)C1	i
78	C[C@@H](O[C@H]1OCCN(Cc2n[nH]c(=O)[nH]2)[C@H]1c1ccc(F)cc1)c1cc(C(F)(F)F)cc(C(F)(F)F)c1	?
79	Cc1ccc(CSc2nnc3n(CC(C)C)c(=O)c4ccc(C(=O)NC(C)C)cc4n23)cc1	i
80	CC1(C(=O)NC2CCCCCC2)Cn2c(cc3ccccc32)C(=O)N1Cc1cccs1 (stereo unspecified)	i
81	COCCN1C[C@H]2CN(C(=O)C3CCC3)C[C@@]2(C(=O)O)C1	i
82	COc1ccc(NC(=O)CCc2nnc3n(Cc4ccccc4Cl)c(=O)c4ccccc4n23)cc1OC	i
83	COc1cc2c(cc1CN1CCCC(O)(CN(C)C)C1)OCCCO2 (stereo unspecified)	i
84	COc1ccccc1CNC(=O)C1(C)Cn2cnc(C(=O)NCc3ccccc3Cl)c2C(=O)N1C1CC1 (stereo unspecified)	i
85	CO[C@@]12CC3[C@@H]([C@@H](O)[C@@H](OC(C)=O)C4[C@](C)(COC(C)=O)CCC[C@]34C)[C@@H](C)C1=CC(=O)O2 (stereo partly specified)	i
86	O=C1CC[C@H](C(=O)N2CCCCC2)N1	i
87	CCNC1(C(N)=O)CCN(c2ncnc3c2nc(-c2ccccc2Cl)n3-c2ccc(Cl)cc2)CC1	?
88	CNC(=O)C(C)(C)N1CCC[C@H]1C(=O)NC1CCCCC1	i
89	CCCn1c(=O)c2ccc(C(=O)NC(C)CC)cc2n2c(=O)n(CC(=O)Nc3cccc(CC)c3)nc12 (stereo unspecified)	i
90	O=C1NCCSc2c1sc1ccc(O)cc21	?
91	CC1(C(=O)NCc2ccccc2)Cn2cnc(C(=O)NCCc3ccccc3)c2C(=O)N1C1CC1 (stereo unspecified)	i
92	Cc1cc(C(=O)N2CCC(CCOc3ccc(F)cc3)C2)c(C)n1Cc1ccc(F)cc1 (stereo unspecified)	i
93	CCNc1ncnc2sc3c(c12)CCN(Cc1ccncc1)C3	i
94	COc1ccc(CCc2nc(-c3nnn4c3COC(c3ccc(Cl)cc3)C4)no2)cc1 (stereo unspecified)	i
95	CC1=C2[C@@H]([C@H](C)CC[C@H]2/C=C(\C)C(=O)O)[C@H](O)C1	i
96	CN(CCCN1C(=O)c2cc3occc3n2CC1(C)C(=O)NC1CCCCCC1)C1CCCCC1 (stereo unspecified)	i
97	CCCN1C(=O)c2c(C(=O)NCc3ccccc3OCC)ncn2CC1(C)C(=O)NC1CCCC1 (stereo unspecified)	i
98	C[C@@]1(O)CCN(Cc2cnc(NCC(=O)O)nc2)C[C@@H]1O	i
99	CCCN(Cc1ccc(F)cc1)C(=O)c1cnc(-c2ccc(C)cc2)[nH]c1=O	i
100	CCOc1ccccc1CN1C(=O)c2cc3occc3n2CC1(C)C(=O)NC1CCCCCC1 (stereo unspecified)	i
101	COc1c2cc(c(O[C@@H]3O[C@H](CO)[C@@H](O)[C@H](O)[C@H]3O)c1OC)CCCCC(O)CCc1ccc(O)c-2c1 (stereo partly specified)	+
102	COc1cc([C@H]2OC[C@](O)(Cc3ccc(O[C@@H]4O[C@H](CO)[C@@H](O)[C@H](O)[C@H]4O)c(OC)c3)[C@@H]2CO)ccc1O	i
103	Cc1cc(F)ccc1NC(=O)CCC1CCCN(C(=O)CC2=CCCCC2)C1 (stereo unspecified)	i

# 4 of the compounds above, with each value named:
97. CCCN1C(=O)c2c(C(=O)NCc3ccccc3OCC)ncn2CC1(C)C(=O)NC1CCCC1 (stereo unspecified)
  Methyltransferases: i
98. C[C@@]1(O)CCN(Cc2cnc(NCC(=O)O)nc2)C[C@@H]1O
  Methyltransferases: i
99. CCCN(Cc1ccc(F)cc1)C(=O)c1cnc(-c2ccc(C)cc2)[nH]c1=O
  Methyltransferases: i
100. CCOc1ccccc1CN1C(=O)c2cc3occc3n2CC1(C)C(=O)NC1CCCCCC1 (stereo unspecified)
  Methyltransferases: i

# 2 entries picked at random from those above, as already listed:
entry	Compound	Methyltransferases
98	C[C@@]1(O)CCN(Cc2cnc(NCC(=O)O)nc2)C[C@@H]1O	i
103	Cc1cc(F)ccc1NC(=O)CCC1CCCN(C(=O)CC2=CCCCC2)C1 (stereo unspecified)	i

# Not all compounds are listed; count on the stated rates, not on these rows.
